Biofilm kill mix = mixtures killing C. albicans biofilm; C. albicans biofilm persisters + clotrimazole, fluorescence viability; primary screen in compound mixtures of four per well; hit rate 0.02% among 120,000; inhibition, % at 7.6 µM;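 active = inhibition above 30.3% in the primary screen of four-compound pools, then above 30% when the compound was retested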;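 also: compounds exposed to preformed 24 h biofilms for 48 h; the number belongs to the whole pool; some results filed as inactive read as strong as hits; inactives centre near 12; 0% = biofilm with clotrimazole alone and 100% = kill control; retested singly at about 60 µM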
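Probe or stimulus – Clotrimazole 50 µg/mL co-treatment · System – C. albicans biofilms · Schedule – 24 h biofilm formation, then 48 h compound exposure, 37 °C · Evaluation – percent inhibition of biofilm viability · Technique – 2-h Alamar Blue fluorescence, 535/590 nm excitation/emission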
The depositor's hits bear a star. These rows are one share of the data. The share of hits here may be higher or lower than overall.

For Nc1cccc(S(=O)(=O)Nc2ccc(Br)cc2)c1 the results were Biofilm kill mix 30.
`CCOc1cnc(-c2c(-c3c(Cl)cccc3Cl)noc2C)o1` gave Biofilm kill mix 12.
For O=C(CSc1nc2ccccc2n1Cc1ccc(Cl)cc1)N/N=C/c1ccccc1C(=O)O the results were Biofilm kill mix 7.
`CCCS(=O)(=O)c1nc(S(=O)(=O)c2ccc(C)cc2)c(NCc2ccc3c(c2)OCO3)s1` gave Biofilm kill mix 11.
For O=c1c2cc(NC(=S)N3CCCCC3)ccc2nc2n1CCCCC2 the results were Biofilm kill mix 6.
Cc1ccc(/C=C/S(=O)(=O)NCC(=O)OCC(=O)N2CC(=O)Nc3ccccc32)cc1 was read as Biofilm kill mix 17.
CC(C)C(NS(=O)(=O)c1cccc2nsnc12)C(=O)NCc1ccco1 (stereo not given) was read as Biofilm kill mix 6.
`COc1cc(/C=N/NC(=O)CNC(=O)c2cccs2)ccc1O` gave Biofilm kill mix 16.
For CC(C)CCN1CCN(Cc2cccs2)CC1CCO (stereo not given) the results were Biofilm kill mix 12.
For CN(C)NC(=O)c1ccsc1NC(=O)c1ccc(S(=O)(=O)N(C)C)cc1 the results were Biofilm kill mix 2.
For O=C1CC(C(=O)N2CCC(N3CCC(C(=O)NC4CC4)CC3)CC2)c2ccccc21 (stereo not given) the results were Biofilm kill mix 9.
`CCCCNC(=O)c1ccccc1NC(=O)CN(c1ccccc1)S(=O)(=O)N(C)C` gave Biofilm kill mix 6.
For CC(=O)Oc1ccc(C(=O)OCC(=O)c2c(N)n(C)c(=O)n(C)c2=O)cc1OC(C)=O the results were Biofilm kill mix 0.
C=CCn1c(SCC(=O)Nc2cccnc2Cl)nnc1-c1ccc(Cl)cc1 was read as Biofilm kill mix 19.
For O=C(CN1C(=O)C2CCCCN2C(=O)c2ccccc21)Nc1ccc(F)cc1 (stereo not given) the results were Biofilm kill mix 18.
For CC1=C/C(=N\Nc2ccccc2[N+](=O)[O-])CC(C)(C)C1 the results were Biofilm kill mix 16.
For CCOC(=O)c1ccc(NC(=S)N2CCC(C(N)=O)(N3CCCCC3)CC2)cc1 the results were Biofilm kill mix 23.
`COC(=O)CNC(c1ccccc1)c1cc(C)ccc1NS(=O)(=O)c1ccc(C)cc1` (stereo not given) gave Biofilm kill mix 8.
Cc1cc(C(=O)C[N+]2(C)CCOCC2)c(C)n1-c1ccc(Br)cc1 was read as Biofilm kill mix 15.
Screening Cc1ccc(S(=O)(=O)c2nc(Nc3ccccc3)sc2Cl)cc1 returned Biofilm kill mix 9.
For Cc1noc(C)c1-c1nc(CS(=O)(=O)c2ccc(F)cc2)no1 the results were Biofilm kill mix 24.
Screening CC(C)(C)C(=O)/C(C#N)=C/c1cccs1 returned Biofilm kill mix 16.
For CSc1nc(S(=O)(=O)c2ccc(C)cc2)c(Cl)s1 the results were Biofilm kill mix 13.
Cc1cc2c(=O)oc(-c3ccc(F)cc3)nc2s1 was read as Biofilm kill mix 20.
For CC(=O)Nc1ccc(-c2csc(N/N=C\c3ccncc3)n2)cc1 the results were Biofilm kill mix 22.
COc1ccc(OC)c(C(=O)NC(CC(N)=O)c2ccc(N3CCC(N4CCCC4)CC3)c([N+](=O)[O-])c2)c1 (stereo not given) was read as Biofilm kill mix 12.
For CCc1nnc(NC(=O)[C@@H](NC(=O)c2ccc(OC)cc2)C(C)C)s1 the results were Biofilm kill mix 8.
`C/C(=N/NC(=O)CNC(=O)c1ccncc1)c1ccc(Cl)cc1` gave Biofilm kill mix -1.
Screening COc1cc(/C=N/NC(=O)C(=O)NCC2CCCO2)cc(Cl)c1O (stereo not given) returned Biofilm kill mix 26.
Screening CCOc1cc(CNCC(C)C)cc(Cl)c1OCc1ccccc1 returned Biofilm kill mix 16.
`CCCCCn1c(=S)[nH]c2cc(C(=O)N3CCCC3)ccc2c1=O` gave Biofilm kill mix 11.
Screening Cc1ccc(-n2c(SCC(=O)Nc3cccc(S(=O)(=O)NC4=NCCCCC4)c3)nc3ccccc3c2=O)cc1 returned Biofilm kill mix 22.
`O=C(CSc1ccc2nnc(-c3ccncc3)n2n1)Nc1nccs1` gave Biofilm kill mix 9.
Screening CCn1ccnc1CN1CCN(CC(C)C)C(CCO)C1 (stereo not given) returned Biofilm kill mix 7.
Screening C/C(=N\NC(=O)c1cc2c(s1)CCC(C)C2)c1cccnc1 (stereo not given) returned Biofilm kill mix 21.
Screening CNC1(C(N)=O)CCNCC1 returned Biofilm kill mix 33.
Screening COc1ccc(CCC(=O)OCC(=O)Nc2ccc(C)c(S(=O)(=O)N(C)C)c2)cc1 returned Biofilm kill mix 7.
`COC(CNC(=O)c1ccc2nc(-c3ccccc3)c(-c3ccccc3)nc2c1)OC` gave Biofilm kill mix 16.
Cc1cc([N+](=O)[O-])ccc1NCc1ccccc1[N+](=O)[O-] was read as Biofilm kill mix 19.
COCCCC1CCN(Cc2cn[nH]c2-c2cc(OC)c(OC)c(OC)c2)CC1 was read as Biofilm kill mix 11.
`Cc1[nH]c2ccccc2c1SCc1nnc(SCc2ccccc2)n1C` gave Biofilm kill mix 27.
Screening CC(=O)c1cc2c(cc1NC(=O)c1ccco1)OCCO2 returned Biofilm kill mix 12.
Screening OCC(O)/C=N/Nc1nc(N2CCCCC2)nc(N2CCCCC2)n1 (stereo not given) returned Biofilm kill mix 14.
For O=c1c2sccc2n(Cc2cc(=O)n3ccccc3n2)c(=O)n1-c1ccccc1 the results were Biofilm kill mix 6.
For COc1ccccc1N1C(=O)C2CCC(c3ccccc3)CC2C1=O (stereo not given) the results were Biofilm kill mix 13.
O=C(CCc1ccc(S(=O)(=O)N2CCOCC2)cc1)N1CCc2ccccc2C1 was read as Biofilm kill mix 13.
CCCCN=C1CC(C)(C)CC(=O)/C1=C(/O)CCC was read as Biofilm kill mix 12.
`CC(C)COc1ccc(C(=O)Nc2sc3c(c2C(=O)O)CC(C)(C)OC3)cc1` gave Biofilm kill mix 19.
For COCCCn1c(=N)c(C(=O)NC2CCCCC2)cc2c(=O)n3ccccc3nc21 the results were Biofilm kill mix 9.
For COc1cccc(/C=N/Nc2cc(Cl)nc(C)n2)c1O the results were Biofilm kill mix 28.
`N=C1C(c2ccccc2)=C(O)CN1c1cccc(S(=O)(=O)NCc2ccco2)c1` gave Biofilm kill mix 21.
`O=[N+]([O-])c1ccc(Cl)cc1CNc1ccc(F)c(F)c1` gave Biofilm kill mix 14.
`Cc1snc2sc(C(=O)c3ccc(F)cc3)c(N)c12` gave Biofilm kill mix 11.
For CCN(C(=O)COC(=O)c1cc(=O)[nH]c2ccccc12)C1CCS(=O)(=O)C1 (stereo not given) the results were Biofilm kill mix 17.
For Cc1ccc(C)c(-n2c(C)cc(/C=N/NC(=O)c3c(C)nc4cc(C)ccn34)c2C)c1 the results were Biofilm kill mix 9.
CC1=CC(C)(C)N2C(=O)C(=O)c3cc(OC(=O)c4ccco4)cc1c32 was read as Biofilm kill mix 0.
CCCCn1c(N)c(N(CC)C(=O)CSc2nnnn2-c2cc(C)ccc2C)c(=O)[nH]c1=O was read as Biofilm kill mix 9.
For CSc1ccccc1NC(=O)c1ccccc1C the results were Biofilm kill mix 11.
COc1ccc(/C=C/C(=O)NCc2ccccn2)cc1OC was read as Biofilm kill mix -3.
C=CCn1c(SCC(N)=O)nnc1-c1cnccn1 was read as Biofilm kill mix 14.

11 structures out of the list, sorted by count of non-hydrogen atoms, highest first.
CCCCn1c(N)c(N(CC)C(=O)CSc2nnnn2-c2cc(C)ccc2C)c(=O)[nH]c1=O was read as Biofilm kill mix 9.
For Cc1ccc(C)c(-n2c(C)cc(/C=N/NC(=O)c3c(C)nc4cc(C)ccn34)c2C)c1 the results were Biofilm kill mix 9.
For COCCCn1c(=N)c(C(=O)NC2CCCCC2)cc2c(=O)n3ccccc3nc21 the results were Biofilm kill mix 9.
O=C(CCc1ccc(S(=O)(=O)N2CCOCC2)cc1)N1CCc2ccccc2C1 was read as Biofilm kill mix 13.
`CC(C)COc1ccc(C(=O)Nc2sc3c(c2C(=O)O)CC(C)(C)OC3)cc1` gave Biofilm kill mix 19.
For CCN(C(=O)COC(=O)c1cc(=O)[nH]c2ccccc12)C1CCS(=O)(=O)C1 (stereo not given) the results were Biofilm kill mix 17.
CC1=CC(C)(C)N2C(=O)C(=O)c3cc(OC(=O)c4ccco4)cc1c32 was read as Biofilm kill mix 0.
COc1ccc(/C=C/C(=O)NCc2ccccn2)cc1OC was read as Biofilm kill mix -3.
For COc1cccc(/C=N/Nc2cc(Cl)nc(C)n2)c1O the results were Biofilm kill mix 28.
C=CCn1c(SCC(N)=O)nnc1-c1cnccn1 was read as Biofilm kill mix 14.
For CSc1ccccc1NC(=O)c1ccccc1C the results were Biofilm kill mix 11.

Carrying on.
For O=[N+]([O-])c1ccc(N2CCC(O)CC2)nc1 the results were Biofilm kill mix 8.
COc1cc(CC(=O)OCC(=O)NC2CC2)cc(OC)c1OC was read as Biofilm kill mix 12.
OC(CNCCc1ccc(C(F)(F)F)cc1)COc1ccc2ccccc2c1 (stereo not given) was read as Biofilm kill mix 16.
Screening Cc1c(C(=O)C(=O)N2CCN(C)CC2)c2ccccc2n1C returned Biofilm kill mix 16.
`c1ccc2sc(NC3=NCN(CC4CCCO4)CN3)nc2c1` (stereo not given) gave Biofilm kill mix 9.
For CN(C)S(=O)(=O)c1ccc(NC=C(C#N)C#N)cc1 the results were Biofilm kill mix 10.
Screening CC(=O)N1CCCc2cc(S(=O)(=O)Nc3ccc(C)cc3C)ccc21 returned Biofilm kill mix 21.
`NC(=O)c1cccnc1Oc1ccccc1` gave Biofilm kill mix 21.
`Cc1[nH]nc2c1/C(=N\O)CCC2` gave Biofilm kill mix 19.
Screening CN(CCc1ccccn1)C(=O)c1cccnc1Oc1ccccc1 returned Biofilm kill mix 27.
O=C(Nc1nc2ccc(Oc3ccccc3)cc2s1)c1cc([N+](=O)[O-])ccc1N1CCOCC1 was read as Biofilm kill mix -2.
For COCCn1c(SCC(=O)N2CC(=O)Nc3ccccc32)nc2ccccc2c1=O the results were Biofilm kill mix 11.
For O=C1NN=C(CSc2n[nH]c(=S)s2)CS1 the results were Biofilm kill mix 9.
`Cn1nccc1NC(=O)Nc1cccc(Cl)c1Cl` gave Biofilm kill mix 17.
N=C1CCCN1CC(=O)c1ccc(Cl)cc1 was read as Biofilm kill mix 11.
Screening CC(C)NC(=O)c1onc(CSc2ccc(Cl)cc2)c1C(=O)NC(C)C returned Biofilm kill mix 13.
Screening Cn1c(CSc2ncccn2)nnc1SCC(=O)N1CCCC1 returned Biofilm kill mix 26.
`COc1ccc(CCN(C)C(=S)NC(=O)c2ccc(F)cc2Cl)cc1OC` gave Biofilm kill mix -3.
Cc1ccccc1-n1c(SCC(=O)N/N=C/c2c(C)nn(-c3ccccc3)c2C)nc2ccccc2c1=O was read as Biofilm kill mix 12.
CCc1ccc(C(=O)Nc2ccc(C)c(NS(C)(=O)=O)c2)cc1 was read as Biofilm kill mix 27.
`O=c1cc(-c2cccc([N+](=O)[O-])c2)[nH][nH]1` gave Biofilm kill mix 11.
CCOc1nc(C)cc(C)c1S(=O)(=O)c1cccc(C)c1 was read as Biofilm kill mix 10.
Screening Cc1ccc(NC(=S)NC(=O)CC2CC(C)(C)OC2=O)cc1 (stereo not given) returned Biofilm kill mix 13.
`CN(Cc1cnccn1)Cc1ccccc1OCC(O)CN1CCc2ccccc2C1` (stereo not given) gave Biofilm kill mix 12.
Screening NNc1nc2c(Cl)c(Cl)ccc2s1 returned Biofilm kill mix 10.
Screening COc1cccc(/C=N/Nc2nnc3c(n2)[nH]c2ccccc23)c1OC returned Biofilm kill mix 21.
Screening Cc1cc2nc(C(C)(C)C)cc(N)n2n1 returned Biofilm kill mix 9.
CCOC(=O)N(C)S(=O)(=O)c1ccccc1[N+](=O)[O-] was read as Biofilm kill mix 10.
`Clc1ccc(-c2nnc(CNC3CC3)o2)cc1` gave Biofilm kill mix 17.
Nn1c(Cc2cccc3ccccc23)nnc1SCc1c(F)cccc1Cl was read as Biofilm kill mix 17.

Random excerpt: 2 compounds from above
Screening Cn1c(CSc2ncccn2)nnc1SCC(=O)N1CCCC1 returned Biofilm kill mix 26.
CCOc1nc(C)cc(C)c1S(=O)(=O)c1cccc(C)c1 was read as Biofilm kill mix 10.

Next section.
CC(=O)Nc1ccc2c(c1)CN(c1cc(C)ccc1C)CO2 was read as Biofilm kill mix 15.
`Cc1ccc(Cl)cc1NC(=O)c1ccccn1` gave Biofilm kill mix 9.
CC1CC1C(=O)OCC(=O)NC(=O)NC12CC3CC(CC(C3)C1)C2 (stereo not given) was read as Biofilm kill mix 1.
For Cc1cccc(NC(=O)CSc2nc(NS(=O)(=O)c3ccccc3)cc(=O)[nH]2)c1 the results were Biofilm kill mix 22.
`CCOC(=O)c1nc(C)nc(Sc2n[nH]c(-c3ccccc3)n2)c1C` gave Biofilm kill mix 9.
`O=C1Nc2ccccc2N(O)N1c1cc(-c2ccccc2)[nH]n1` gave Biofilm kill mix 3.
For Nc1nc(C(F)(F)F)cc(=O)n1N the results were Biofilm kill mix 3.
`Cc1ccc(C(=O)NNC(=O)CCC(=O)Nc2cccc(Cl)c2C)cc1` gave Biofilm kill mix 9.
`CN(Cc1ccccc1)c1ccc2nnc(-c3ccccc3)n2n1` gave Biofilm kill mix -1.
`Cn1nnc(C(O)CNCc2ccc(Cl)cc2)n1` (stereo not given) gave Biofilm kill mix 13.
For CCCCCC(=O)NNC1CC(=O)N(c2ccccc2)C1=O (stereo not given) the results were Biofilm kill mix 23.
`COCc1ccc(C(=O)N2CCCC(CCC(=O)NCc3ccccc3F)C2)o1` (stereo not given) gave Biofilm kill mix -2.
Screening O=C(CSc1nnc(CCCN2C(=O)c3cccc4cccc(c34)C2=O)n1-c1ccccc1)N1CCCCC1 returned Biofilm kill mix 15.
`O=c1[nH][nH]cc1C=NCc1cccc(C(F)(F)F)c1` gave Biofilm kill mix 10.
`COc1cc(NC(=O)CSc2nccc(C)n2)c(C)cc1[N+](=O)[O-]` gave Biofilm kill mix 14.

Molecules shown so far that have a tert-butyl group (two):
Screening CC(C)(C)C(=O)/C(C#N)=C/c1cccs1 returned Biofilm kill mix 16.
Screening Cc1cc2nc(C(C)(C)C)cc(N)n2n1 returned Biofilm kill mix 9.

From PubChem BioAssay
